CtBP-E1A blk – CtBP/E1A binding inhibition. AlphaScreen GST-E1A/His-CtBP binding, 1536-well; active compounds read low; control for the full effect not named in the record. 340,000 compounds, 0.49% hits. AID 651724. activity change, % (test concentration not listed); in the data active means activity change below about -65%; inconclusive means about -30% to -65%; inactive means above about -30%; note: % is set by controls: 0 for no effect and ±100 for the full control effect
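AlphaScreen with 125 nM GST-E1A and 125 nM His-CtBP (5X stocks) in Tris pH 8.0, 300 mM NaCl, BSA, Tween 20, TCEP. Compounds preincubated 2 h at 37 deg C, then glutathione donor/nickel acceptor beads added for 1 h at 37 deg C in dark.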
D2 agonist – activates the human D2 dopamine receptor; P14416; DiscoveRx PathHunter D2 beta-arrestin, luminescence, 90 min; 100% = 57 uM dopamine signal; activation, % (concentration not given with the values); 360,000 compounds, 0.084% hits; in the data active = activation above about 40%; inconclusive = about 15% to 40%; inactive = below about 15%; note: the text of the record calls up to 30% inactive
Target sequence (P14416 whole entry, looked up): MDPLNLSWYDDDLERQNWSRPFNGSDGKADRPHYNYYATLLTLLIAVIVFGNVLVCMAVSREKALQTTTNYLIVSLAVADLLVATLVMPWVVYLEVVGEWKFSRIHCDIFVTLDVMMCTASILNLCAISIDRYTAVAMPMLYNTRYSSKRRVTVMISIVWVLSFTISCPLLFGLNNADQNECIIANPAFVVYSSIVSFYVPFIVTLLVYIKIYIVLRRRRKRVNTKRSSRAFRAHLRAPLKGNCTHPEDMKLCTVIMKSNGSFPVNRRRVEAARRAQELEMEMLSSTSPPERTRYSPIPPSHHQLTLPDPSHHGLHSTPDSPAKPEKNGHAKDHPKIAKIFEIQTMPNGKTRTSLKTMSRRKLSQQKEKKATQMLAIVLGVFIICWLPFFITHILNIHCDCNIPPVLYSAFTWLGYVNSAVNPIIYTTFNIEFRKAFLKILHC
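DiscoveRx PathHunter D2 beta-arrestin cells (2,100/well) attached overnight, then compound-stimulated 90 min at 37 C in HBSS/10 mM HEPES/0.1% Tween-20 buffer; beta-galactosidase complementation read by luminescence after 1 h at ambient temperature. Dopamine 57 uM final (EC100) as control.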
TRPML1 blocker – inhibitors of human TRPML1 channel. TRPML1-inducible cells, Ca2+ dye fluorescence, FDSS; active compounds read low; inhibition of EC80 agonist-evoked calcium signal. AID 624415. 390,000 compounds, 0.02% hits. activity change, negative = inhibition, % (no concentration beside the values); in the data active means activity change below about -50%; inconclusive means about -30% to -50%; inactive means above about -30%;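 note: stimulus is agonist 54-4 at its EC80 concentration; % is set by controls: 0 for no effect and ±100 for the full control effect; compound concentration not given in the record; the text of the record puts the active cut at -80%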
Target sequence (Q9GZU1 whole entry, looked up): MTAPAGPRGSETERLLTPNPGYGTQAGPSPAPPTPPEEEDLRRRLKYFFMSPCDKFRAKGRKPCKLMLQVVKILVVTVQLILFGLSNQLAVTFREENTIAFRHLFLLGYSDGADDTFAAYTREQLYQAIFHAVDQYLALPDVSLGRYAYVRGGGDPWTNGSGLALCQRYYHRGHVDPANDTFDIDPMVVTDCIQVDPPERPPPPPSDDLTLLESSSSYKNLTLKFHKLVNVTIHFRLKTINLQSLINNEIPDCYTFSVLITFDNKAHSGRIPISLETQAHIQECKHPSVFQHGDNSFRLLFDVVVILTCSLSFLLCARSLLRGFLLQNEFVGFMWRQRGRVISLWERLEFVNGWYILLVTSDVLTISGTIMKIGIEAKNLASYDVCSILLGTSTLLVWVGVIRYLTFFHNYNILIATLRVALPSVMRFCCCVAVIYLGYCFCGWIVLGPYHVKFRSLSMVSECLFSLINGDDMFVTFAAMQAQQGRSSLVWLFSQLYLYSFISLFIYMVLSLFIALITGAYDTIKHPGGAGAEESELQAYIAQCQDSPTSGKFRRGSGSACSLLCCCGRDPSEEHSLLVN
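Calcium fluorescence in TRPML1-DL cells induced overnight with Tet: a 110 s read after compound pin addition, then a 110 s antagonist read after challenge with 54-4 at 4 uM final (EC80).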
TRPML1 agonist – activates the human TRPML1 channel. Q9GZU1. TRPML1-expressing cells, Ca2+ dye fluorescence, FDSS; host cell line not named in the record; reference of the full effect not given here. activation, % (no concentration beside the values). 410,000 compounds, 0.12% hits. AID 624414; in the data active = activation above about 50%; inconclusive = about 30% to 50%; inactive = below about 30%; note: 0% is about no effect; the text of the record puts the active cut at 80%
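Calcium fluorescence on an FDSS kinetic reader gave the read-out. Tet-induced TRPML1-DL cells were plated overnight, dye-loaded (Ca8 with quencher, 45-90 min, room temperature, dark), then read 110 s after compound addition, and again 110 s after 4uM final 54-4 (EC80).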
Six1-Eya2 blk – blocks human Six1 binding to Eya2. AID 651725. activity change, % (concentration not given with the values). AlphaScreen GST-Six1/His-Eya2 binding, biochemical; active compounds read low; control for the full effect not named in the record. Q15475+O00167. 360,000 compounds, 0.56% hits; in the data active = activity change below about -65%; inconclusive = about -30% to -65%; inactive = above about -30%; note: % is set by controls: 0 for no effect and ±100 for the full control effect
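Compounds are tested against tagged Six1 and Eya2 proteins bridged by glutathione donor and nickel acceptor beads; after a one-hour incubation at 37 °C without light, AlphaScreen emission is recorded.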
PINK1 expr mod – changes PINK1 expression; 410,000 compounds, 0.2% hits; Potency, µM (series often up to 76.6 µM), inactives show at the top dose activation (PINK1 increase), actives largely listed as activators; PINK1 immunofluorescence, high-content cytometry, 24 h; active = well fitted activation curve with a large enough effect; inconclusive = small, poorly fitted or top-dose-only effect; inactive = flat fitted curve, though single readings scatter; cell line not stated here;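 note: potency is the fitted concentration of half-maximal effect; % of control where 0% means no effect; nearly all actives have a fitted effect of over 65% in size; a mitochondrial uncoupler was the plate control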
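PINK1 protein level read as immunofluorescence by microplate cytometer in a fixed, stained stable cell line after 24 h exposure to five compound concentrations, with CCCP as control.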
Starred values were filed as active, the others as inactive; ? = inconclusive; / = no result given; & = joins results of further samples; [ ] = another dose, or the depositor's remark.

Below each SMILES – D2 agonist, Six1-Eya2 blk, TRPML1 agonist, TRPML1 blocker, CtBP-E1A blk, PINK1 expr mod
> N/C(=N\OC(=O)CCn1cccc(C(F)(F)F)c1=O)c1ccc(Cl)cc1
  0.4, 9, -1.1, -4, 6, 0.3%
> CC(C)CN(C(=O)c1cc(Cl)nc2ccccc12)C1CCS(=O)(=O)C1 (centres undefined)
  2.8, 12, -0.4, 26, 0, 2.4%
> CCCCNC(=O)C1(C)CCN1C(=O)c1cc(-c2cccs2)oc1C (centres undefined)
  -7.5, -4, 0.1, -13, 3, 14%
> Cn1cnc2c1c(=O)n(Cc1ccccc1)c(=O)n2C
  -9.9, 4, -0.4, -8, 8, -0.3%
> Cc1ccc(CS(=O)(=O)CCC(=O)O)cc1
  2.9, 4, 0.8, -11, -2, -1.2%
> Cc1ccc(C(=O)N(C)c2ccc(OCC(=O)N3c4ccc(C)cc4C4CN(C)CCC43)cc2)cc1 (centres undefined)
  -1.3, 35, 0.8, 16, 0, -3.4%
> COc1ccc(C(C(=O)NCCC(C)C)N(CCCO)C(=O)c2snc(C(N)=O)c2N)cc1OC (centres undefined)
  -4.3, -2, -0.4, -9, 11, -0.9%
> CN(C)C(=O)CSc1n[nH]c(=O)n1CCc1ccccc1
  0.5, 1, -0.4, 15, 2, 0.3%
> Cc1ccc(C)c(N(CC(=O)NCC2CCCO2)C(=O)CCC(=O)Nc2nccs2)c1 (centres undefined)
  0.2, 0, -0.4, -1, -6, -1.0%
> COc1cc(NC(=O)N2CCC(CN3CCOCC3)CC2)cc(OC)c1OC
  /, /, 0.4, -10, /, 1.2%
> COc1ccc(-c2nc3ccc(C)cn3c2Cc2ccsc2)cc1OC
  -10, -13, -0.6, /, -9, ?
> COC(=O)C(C(=O)OC)=C(/C=C/N(C)C)N(C)C
  0.1, 11, -0.3, 2, 1, -1.5%
> NC(N)=N/N=C/c1cccc([N+](=O)[O-])c1O
  -8.4, -23, -0.3, 3, -16, 1.1%
> CS(=O)(=O)N(CC(=O)NC1CC1)c1cccc(F)c1
  -2.3, -4, 0.6, 15, 6, 2.3%
> O=C(O)c1cn(Cc2ccccc2)c2ccccc2c1=O
  0.5, 4, -1.5, -6, 2, -1.0%
> CCOc1cc(/C=N\O)cc(Cl)c1OCC
  -0.8, 4, -0.7, -11, 0, -2.5%
> CCc1nnc(NS(=O)(=O)c2ccc(N=Cc3c(C)[nH]n(-c4ccc(Cl)cc4)c3=O)cc2)s1
  -3.9, -25, -0.9, -1, 16, 3.7%
> O=C(Nc1ccc2nc(SCC(=O)N3CCc4ccccc43)sc2c1)c1ccc(Cl)cc1
  /, /, 0.7, -7, /, 4.0%
> COc1ccc(CNC(=O)C2CCN(S(=O)(=O)N3CCC4(CC3)OCCO4)CC2)c(OC)c1
  -1.2, -19, 0.0, 1, -13, 4.5%
> CCN(CC)CCCNC(=O)Cn1nc(C)n2c(cc3sccc32)c1=O
  /, /, 0.1, 31, /, -1.7%
> CCC(C(=O)NCC1CCCO1)N(C(=O)CNS(=O)(=O)c1ccccc1)c1ccc(F)cc1 (centres undefined)
  -3.2, 0, -0.6, -17, 20, 3.0%
> Cc1ccc(S(=O)(=O)/N=C(/c2ccc(F)cc2)N2CCCCC2)cc1
  -6.0, 6, 1.5, 25, 1, 0.8%
> COc1ccc(C(=O)COC(=O)c2ccc3c(c2)OCO3)c(OC)c1
  -2.5, 1, 1.7, 2, 1, 19%
> CC1CCN(C(=O)Cn2cc(S(=O)(=O)CC(=O)N3CCOCC3)c3ccccc32)CC1
  0.6, 1, -0.3, 1, 2, 1.9%
> CCOc1cc(/C=C/C(=O)OCC(=O)NCCN2C(=O)CSC2=O)ccc1OCC(C)C
  -0.4, 0, -1.6, 7, /, 1.4%
> Cn1c(=O)oc2cc(S(=O)(=O)CCC(=O)N3CCN(c4ccccc4)CC3)ccc21
  2.5, -1, -0.4&-0.5, -15&-8, 7, -0.3%&0.7%
> OC1CN=C2Sc3ccccc3N2C1 (centres undefined)
  1.2, 4, 0.7, 1, -2, -0.7%
> O=C1OCCC1Sc1nnc(-c2cccnc2)n1-c1ccccc1F (centres undefined)
  1.2, 3, 0.3, -1, -18, -2.4%
> Cc1cc(C)cc(OCc2ccc(C(=O)NC3CCOC3=O)o2)c1 (centres undefined)
  -4.4, 7, -0.3, -4, 9, 0.9%
> Cn1c(Cc2cccs2)nnc1SCc1nc2ccccc2[nH]1
  -2.1, 3, -1.0, -24, 3, -1.7%

Just D2 agonist (2 entries from above):
molecule	D2 agonist
COc1ccc(C(C(=O)NCCC(C)C)N(CCCO)C(=O)c2snc(C(N)=O)c2N)cc1OC (centres undefined)	-4.3
COc1ccc(CNC(=O)C2CCN(S(=O)(=O)N3CCC4(CC3)OCCO4)CC2)c(OC)c1	-1.2

(continued)
Below each SMILES – D2 agonist, Six1-Eya2 blk, TRPML1 agonist, TRPML1 blocker, CtBP-E1A blk, PINK1 expr mod
> CCOc1ccc(NC(=O)CCc2c(C)nc3cc(-c4ccccc4OC)nn3c2C)cc1
  /, /, -1.2, 9, /, 1.1%
> CC(C)(C)OC(=O)N1CCC(c2c(C(=O)N3CCN(C(=O)c4ccco4)CC3)cnn2-c2ccc(F)cc2F)CC1
  -0.2, 2, 0.8&0.9, 2&-6, 6, 0.4%&-1.0%
> CN(C)c1cc[n+](CC(=O)Nc2ccc([N+](=O)[O-])cc2Cl)cc1
  -0.3, 2, 4.0, 7, 8, -3.1%
> O=C1CN(C(=O)COc2ccccc2)c2ccccc2N1
  -0.7, 14, 0.0, -5, 1, 0.2%
> CC(C)C1Nc2ccc(S(=O)(=O)N3CCOCC3)cc2NC1=O (centres undefined)
  -1.1, 2, -0.4, 37, 2, -0.9%
> O=C(Cc1ccccc1)Nc1sc2c(c1C(=O)Nc1ccc(Br)cc1)CCC2
  /, /, -0.3, -13, /, -0.2%
> CCC1C(=O)NCCN1C(=O)CCc1nnc(CCc2ccc(OC)cc2)o1 (centres undefined)
  -1.3, 1, -0.1, 32, 5, 0.1%
> Nc1ccccc1N1CCN(C(=O)c2ccccc2)CC1
  -5.0, -1, -0.3, 12, 3, -2.0%
> COc1cccc(N2CCN(C(=O)Cn3ncc4c(=O)oc5ccccc5c43)CC2)c1
  /, /, -0.4, 0, /, 7.6%
> O=S(=O)(c1ccccc1Cl)N1CCC(O)(c2ccc3c(c2)OCO3)CC1
  -1.1, 0, -0.1, 4, -2, -3.7%[38.3 µM]
> CCn1cc(C(=O)O)c(=O)c2cnc(N3CCN(C(=S)Nc4ccccc4Cl)CC3)nc21
  2.8, -16, -0.1, -26, ?, -0.1%
> Cc1cccc(NC(=S)N(CCN2CCOCC2)Cc2cc3cc4c(cc3[nH]c2=O)OCCO4)c1
  -2.3, -4, 1.9, -4, /, 2.1%
> Cc1cccc(N(C)S(=O)(=O)c2csc(C(N)=O)c2)c1
  -1.5, -2, -1.1, 5, 3, -0.7%
> CCc1ccc(-c2csc(NC(=O)c3cccnc3)n2)cc1
  5.9, 2, 0.1, -2, 0, 16%
> Cc1c(Cl)cccc1NC(=O)CN1C(=O)CCn2nc(-c3cccn3C)cc21
  /, /, 0.9, 9, /, 2.7%
> COc1ccc(-c2nc(CNS(=O)(=O)c3ccc(F)cc3)cs2)cc1
  /, /, 0.1, -6, /, 1.2%
> O=[N+]([O-])c1cc2c(cc1/C=N/NS(=O)(=O)c1ccc(Br)cc1)OCO2
  9.1, -20, 4.0, 2, /, 1.9%
> Cc1ccc(NC(=O)CSCc2n[nH]c(=O)[nH]2)c(Br)c1
  0.2, -3, 0.0, -8, -3, 1.0%
> C[n+]1c2n(c3ccccc31)N=C(c1ccccc1)CS2
  -3.6&-4.2, -12&-17, -0.5&0.9, 31&-12, -1&-15, ?
> COc1cc(O)oc1C=Nc1ccc(C(=O)O)cc1
  -4.3, 7, 0.8, -14, -5, 1.9%
> O=C1CC(c2ccccc2F)C2=C(COC2=O)N1 (centres undefined)
  1.6, 0, -0.7, 1, /, 2.3%
> CNC(=O)COC(=O)c1c2c(nc3ccccc13)CCC2
  -0.5, -9, -0.4, 1, /, 0.4%
> O=c1cc(CO)oc(C(Nc2ccccn2)c2ccccc2F)c1O (centres undefined)
  -4.0, 2, -0.3, -1, -22, 0.1%
> CCOc1nc2cnccc2n(CC(=O)Nc2cccc(C)c2)c1=O
  -1.9, 3, -0.3, 7, 9, 1.4%
> Cc1nnc(Cl)c2nn(-c3ccccc3)c(C)c12
  -5.8, -5, 0.3, -13, 10, -0.4%
> O=c1oc2cc(O[C@@H]3OC[C@@H](O)[C@H](O)[C@H]3O)ccc2c2ccccc12
  1.4, -10, 0.2, 0, -1, 1.0%
> Cc1cc(C)c(Cn2cnc(-c3ccc([N+](=O)[O-])cc3)c2)c(C)c1
  -1.0, 18, 0.7, 6, 44, /
> CCOc1ccc(C(=O)Cn2cnnc2C#N)cc1
  -17, 4, -1.4, -9, 20, 0.9%
> COc1ccc(CCNC(=O)c2ccc3c(c2)N(Cc2ccccc2)CCS3)cc1OC
  11, -13, -0.4&1.0, 16&-6, -14, 0.0%&-1.0%
> CCN(CC(=O)Nc1ccccc1C(F)(F)F)C(=O)CCS(=O)(=O)c1ccc(Cl)cc1
  -4.3, -1, -1.0, -2, 6, 1.2%
> CC(=O)c1cc(NC(=O)c2ccccc2)c(=O)oc1C
  -1.6, -4, 2.0, 18, -18, 2.6%
> COc1ccc(CNC(=O)CCSCc2ccccc2Cl)c(OC)c1
  0.7, -5, 0.6, -5, -1, -0.3%
> CCOC(=O)CSc1nc2c(cnn2-c2ccc(F)cc2)c(=O)[nH]1
  3.2, 5, -0.2, 8, 3, -0.2%
> CCCN(CC(=O)Nc1ccccc1OC)CC(=O)c1c(N)n(Cc2ccccc2)c(=O)n(C)c1=O
  -3.9, 8, 0.0, -5, /, -0.5%
> O=C(O)CCC(=O)c1ccc2c(c1)OCCCO2
  -4.1, 4, -0.8, 4, 3, 2.2%
> OC[C@@H]1CN(CCN2CCOCC2)C[C@H](n2cnc3c(Nc4ccccc4)ncnc32)O1
  1.2, 3, 0.0, /, 11, -0.7%
> COc1ccc(CNC(=O)C(C)Sc2ccc(S(=O)(=O)N3CCOCC3)cn2)cc1 (centres undefined)
  -4.0, -3, 2.1, ?, 4, -0.6%

Screens as filed in PubChem.
